Screens (PubChem BioAssay)
GLA inh pH 4.5 – alpha-galactosidase A (human) inhibition, pH 4.5; P06280; purified enzyme, 4-MU-alpha-Gal fluorescence, pH 4.5; activity change, negative = inhibition, % at 105 µM; 230,000 tested, under 10 active; inconclusive = small, poorly fitted or top-dose-only inhibition, or a rising curve; inactive = flat fitted curve, though single readings scatter; no compound was filed as active;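 further: 0% = full activity with enzyme and -100% = basal without enzyme; dose as in the result columns while the protocol names 77 µM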
miR-21 reporter – miR-21 reporter, rising signal | HeLa miR-21 FLuc reporter, luciferase, 48 h | Potency, µM (series often up to 38.3 µM), for inactives: top-dose reporter change, positive = more light | 340,000 tested, under 10 active | AID 2288; active = well fitted rising curve with a large enough effect; inconclusive = small, poorly fitted or top-dose-only effect; inactive = no such curve, though single readings can be large or run the other way;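 further: % of control where 0% means no effect; miR-21 action dims this reporter so a rising signal means less miR-21 action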
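HeLa cells stably expressing CMV-driven firefly luciferase with a downstream miR-21 binding sequence, endogenously expressing miR-21, were treated with titrations (up to about 40uM final) for 48 hours at 37 degree Celsius. Luciferase luminescence was read after lysis.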
Rango release inh – inhibitors of RanGTP-induced Rango-importin beta complex dissociation; Potency, µM (doses to about 46.1 µM), for the others: at the top dose activity change, negative = inhibition; O95149+P62826; 340,000 compounds, 0.071% hits; AID 540253; Biochemical FRET Rango-importin beta, RanGTP-induced dissociation; active means falling FRET ratio curve, often poorly fitted, with flat reads before Ran was added; inconclusive means other falling curves, or compound fluorescence or quenching; inactive means flat or rising ratio curve;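 further: potency means the concentration at half of the fitted maximal effect; % of control where 0% means no effect; nearly all actives have a fitted effect of over 45% in size; -100% = wells without RanGTP and RCC1; the record marks most hits as doubtful in a second field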
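Compounds preincubate 5 min with complex of recombinant Rango and importin beta in PBS with 1 mM DTT. Ran (0.6 uM) loaded with 2 mM GTP plus 0.2 uM RCC1 starts dissociation; FRET is recorded 45 min later.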
Rango complex inh – prevents formation of the Rango-importin beta complex | Q14974 | 340,000 compounds, 0.031% hits | AID 540263 | Potency, µM (highest dose often 92.2 µM), without a hit: top-dose inhibition of complex formation | Rango CFP/YFP FRET sensor + importin beta, 45 min; active = rising FRET ratio curve, often small or poorly fitted; inconclusive = mostly compound fluorescence or quenching in the first reads; inactive = flat curves in all reads;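 further: potency means the concentration at half of the fitted maximal effect; 0% = DMSO wells and 100% = buffer wells lacking importin beta; nearly all actives have a fitted effect of over 15% in size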
Target sequence (Q14974 whole entry, looked up): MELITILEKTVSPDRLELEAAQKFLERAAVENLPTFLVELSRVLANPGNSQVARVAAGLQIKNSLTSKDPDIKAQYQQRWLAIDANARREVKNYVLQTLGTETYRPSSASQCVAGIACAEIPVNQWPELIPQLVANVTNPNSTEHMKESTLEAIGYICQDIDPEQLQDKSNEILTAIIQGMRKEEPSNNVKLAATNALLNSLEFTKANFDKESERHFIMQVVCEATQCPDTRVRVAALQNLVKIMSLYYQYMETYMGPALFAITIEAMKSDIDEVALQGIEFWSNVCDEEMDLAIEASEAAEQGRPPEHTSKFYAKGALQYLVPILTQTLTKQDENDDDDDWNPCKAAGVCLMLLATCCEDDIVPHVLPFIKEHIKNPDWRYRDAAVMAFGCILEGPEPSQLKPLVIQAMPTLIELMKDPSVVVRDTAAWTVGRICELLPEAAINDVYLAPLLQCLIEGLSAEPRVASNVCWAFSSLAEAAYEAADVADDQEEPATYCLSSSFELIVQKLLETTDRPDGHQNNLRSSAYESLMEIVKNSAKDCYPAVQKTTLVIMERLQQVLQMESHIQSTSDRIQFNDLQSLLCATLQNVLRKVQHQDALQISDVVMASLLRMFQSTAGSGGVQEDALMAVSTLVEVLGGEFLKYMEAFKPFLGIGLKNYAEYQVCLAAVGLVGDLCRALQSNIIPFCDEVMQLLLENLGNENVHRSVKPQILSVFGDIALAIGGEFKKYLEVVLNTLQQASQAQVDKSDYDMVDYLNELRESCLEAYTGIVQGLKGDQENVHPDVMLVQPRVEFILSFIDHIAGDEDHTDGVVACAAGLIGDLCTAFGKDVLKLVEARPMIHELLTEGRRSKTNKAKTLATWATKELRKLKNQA
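FRET biosensor (snurportin 1 IBB flanked by EYFP and cerulean), 50 nM, with compound 5 min, then 0.125 microM importin beta in PBS, 1 mM DTT, 0.02% Tween-20, 0.1% BSA. CFP/YFP ratio read after 45 min at room temperature; pre-read flags interference.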
* hit, by the source's call; ? = inconclusive; . = not tested or not shown.

GLA inh pH 4.5	Compound	Rango release inh	Rango complex inh	miR-21 reporter
2.7	COc1ccc(/C=N/n2c(C)nc3sc(C)c(C)c3c2=O)cc1OC	-5.5%	-4.0%	1.6%
.	CCOC(=O)C1=C(C)N(CCCCCC(=O)O)C(=O)NC1c1ccc(Br)cc1 (centres undefined)	0.5%	-3.2%	-4.3%
1.2	Cc1c(C(=O)Nc2nnc(C(F)(F)F)s2)oc2ccccc12	4.5%	6.1%	-11.8%
-9.9	COc1ccc(OC)c(C2C(C(=O)c3cccs3)=C(O)C(=O)N2CCN(C)C)c1 (centres undefined)	-5.4%	0.0%	-4.4%
.	CCn1c(C(=O)O)c(CC(=O)N(C)c2ccc(OC)cc2OC)c2ccccc21	0.8%	2.3%	-2.6%
9.9	Cc1ccc(CNC(=O)C2c3ccccc3C(=O)N(C)C2c2c[nH]c3ccccc23)o1 (centres undefined)	10.9%	-2.6%	-1.0%
-1.3	CCn1c(=NC(=O)c2cccc(N3C(=O)CCC3=O)c2)sc2c(OC)ccc(OC)c21	-1.3%	0.3%	-0.4%
-6.5	CCCCn1nc2cc(C(=O)NCc3ccccc3OC)ccc2c1OCC	13.7%	4.9%	-6.7%

(more compounds)
GLA inh pH 4.5	Compound	Rango release inh	Rango complex inh	miR-21 reporter
.	CCOc1ccccc1N(CC(=O)Nc1cccc2ccccc12)S(C)(=O)=O	-10.3%	-0.3%	-14.1%
-6.3	CCOC(=O)c1ccc(NS(=O)(=O)c2ccc(Cl)nc2)cc1	.	.	-0.2%
.	COc1ccccc1-c1cccc([C@@H]2C[C@H]3[C@@H](CN2)CON3C)c1	1.9%	2.4%	.
.	O=C(Nc1nc(-c2ccc(Cl)cc2)cs1)C1=COCCO1	-3.9%	5.4%	.
.	O=C(NC(=S)NCc1ccccc1)c1ccc(Br)cc1	14.7%	-0.1%	.
-3.2	Cc1ccc(N2C(=O)CC(n3ccnc3)C2=O)cc1C (centres undefined)	6.8%	-2.6%	-4.1%
.	CC(C)c1nn2c(=O)cc(COc3cccc(NC(=O)c4ccco4)c3)nc2s1	-1.3%	-1.3%	-2.0%
6.0	COc1ccc(CNC(=O)C(c2ccncc2)N(C(=O)Cc2cccs2)c2cccnc2)cc1 (centres undefined)	4.4%	-3.6%	0.4%

Next results follow.
GLA inh pH 4.5	Compound	Rango release inh	Rango complex inh	miR-21 reporter
.	O=C(CCC(=O)N1CCSc2ccccc21)NCc1ccccc1	-6.7%	-1.1%	-5.3%
.	CCOC(=O)c1c(C)[nH]c(C)c1C(=O)COC(=O)c1cccnc1SC	14.9%	0.1%	.
-5.4	Cc1ccccc1Nc1nc(-c2cccnc2)nc2ccccc12	-17.0%	-0.9%	5.8%
-2.1	COc1ccc2nc(/N=C(\N)NC(=O)N3c4ccccc4Sc4ccccc43)nc(C)c2c1	-10.2%	3.6%	-5.2%
-0.3	CCSc1nnc(NC(=O)CSc2nc3c(c(=O)n2C)SC(C)C3)s1 (centres undefined)	-4.2%	-0.1%	-10.0%
-7.6	Cc1nn(-c2ccccc2)c2c1C1(C(=O)N3c4c(cccc41)C(C)CC3(C)C)C(C#N)=C(N)O2 (centres undefined)	-9.9%	2.4%	1.0%
-11.4	CC(C)COc1cccc(C(=O)Nc2ccc(S(=O)(=O)N3CCOCC3)cc2)c1	-17.8%	-4.4%	17.0%
8.1	CCCS(=O)(=O)c1c(S(=O)(=O)CCC)c2cc(CC)ccn2c1C(=O)OC	23.7%	3.8%	9.0%

New compounds follow
GLA inh pH 4.5	Compound	Rango release inh	Rango complex inh	miR-21 reporter
.	COc1ccc(S(=O)(=O)N2CCOCC2)cc1NC(=O)CN1C(=O)NC2(CCCC2)C1=O	10.8%	-0.2%	.
.	CC(=O)c1cccc(OCc2cc(C(=O)NC3CCN(Cc4ccccc4)CC3)no2)c1	-6.2%	0.1%	12.4%
?	O=c1oc2c(CN3CCN(CCO)CC3)c(O)ccc2cc1-c1ccccn1	?	?	2.8%
-2.8	Cc1ccc(C(=O)NCCN2CCOCC2)cc1	-2.6%	0.4%	-24.4%
-4.1	CCCCC(=O)Nc1ccc(C(N)=O)cc1	9.3%	1.5%	-12.6%
3.9	O=C(Nc1cccc(C(F)(F)F)c1)C1CCCN(S(=O)(=O)c2cnc[nH]2)C1 (centres undefined)	13.2%	-0.4%	-3.2%
.	CCOC(=O)C1(C)NC(c2cccc(C)c2)C2C(=O)N(c3ccccc3)C(=O)C21 (centres undefined)	-10.4%	-3.5%	-6.3%
1.2	CC(=O)NS(=O)(=O)c1ccc(NC(=O)c2ccc(Br)o2)cc1	1.1%	0.3%	-3.0%

The listing continues:
GLA inh pH 4.5	Compound	Rango release inh	Rango complex inh	miR-21 reporter
-3.5	Cc1cc(C)n(S(=O)(=O)c2ccc(Cl)c(Cl)c2Cl)n1	-10.7%	0.3%	-10.4%
-7.0	Cc1cc(-c2n[nH]c(=S)n2/N=C/c2cccc(O)c2)n[nH]1	0.7%	-0.2%	-14.0%
1.5	CC1CCCCN1C(=O)Cn1c(=O)oc2ccccc21 (centres undefined)	-5.6%	-1.1%	-4.0%
-1.7	COc1ccc(Br)cc1CNC(=O)C1CCN(C(=O)N(C)C)CC1	-3.4%	2.6%	4.3%
3.4	C=CCn1c(SCc2c(C(=O)OC)sc(N)c2C(=O)OC)nnc1-c1ccc(Br)cc1	-7.7%	2.7%	23.9%
2.2	Cc1cc(C)nc(NC2=NCCN2C(=S)Nc2c(C)cccc2C)n1	0.4%	-4.8%	-2.8%
.	CN(CC(=O)Nc1cccc(F)c1)C(=O)c1sc2ccccc2c1Cl	1.0%	3.0%	.
.	COc1cc(/C=N/NC(=O)c2ccc3c(c2)OCCO3)cc(Cl)c1O	-3.9%	?	-16.0%

Continuation.
GLA inh pH 4.5	Compound	Rango release inh	Rango complex inh	miR-21 reporter
.	Cc1cc(C(=O)Nc2ccc(S(=O)(=O)N3CCOCC3)cc2)ccc1[N+](=O)[O-]	-3.1%	-4.4%	9.4%
.	O=C(NCCCN1CCOCC1)C1Nc2ccc(OC(F)(F)F)cc2C2C=CCC12 (centres undefined)	3.0%	?	.
.	O=C(NCC1CC1)c1cc(-c2ccccc2)nn1CC1CC(c2cccnc2)=NO1 (centres undefined)	0.3%	-0.4%	.
-2.7	c1ccc(-c2nnc(SCC3CCCO3)nc2-c2ccccc2)cc1 (centres undefined)	-6.5%	-0.5%	4.5%
-1.0	C/C(=C\C(=O)c1ccc(Cl)cc1)NCc1ccc2c(c1)OCO2	-0.5%	-2.7%	-3.3%
3.9	COC(=O)c1ccccc1NC(=O)CSc1ncn[nH]1	18.8%	1.2%	4.3%
.	Cc1cccc(C)c1OCC(=O)N(Cc1ccc(Cl)cc1)C1CCS(=O)(=O)C1 (centres undefined)	4.0%	-4.1%	-4.4%
3.1	COc1ccc(NC(=O)COC(=O)c2ccc([N+](=O)[O-])o2)cc1Cl	-6.2%	-0.9%	4.0%

Remaining list, next part:
GLA inh pH 4.5	Compound	Rango release inh	Rango complex inh	miR-21 reporter
6.4	COc1ccc(/C=N/NC(=O)c2ccc(=O)[nH]n2)cc1OC	-12.1%	5.6%	-2.1%
.	CCN(C[C@H]1N[C@@](Cc2ccccc2)(C(=O)OC)[C@H]2C(=O)N(C)C(=O)[C@@H]12)C(=O)c1ccc(F)cc1	13.4%	-3.9%	.
-7.5	CC(=O)c1cnc(Nc2nc(C)c3cccc(C)c3n2)nc1C	.	.	-3.9%
-18.7	CN(C)/C=C/C(=O)c1ccc(Oc2ccccc2)cc1	-15.2%	?	-43.0%
.	COc1ccc(Cc2nnc(NC(=O)Nc3ccc(C)cc3)s2)cc1OC	-0.2%	-1.2%	-44.1%
.	CCc1cc(C(=O)Nc2nc(-c3ccccn3)cs2)sc1C	10.0%	?	.
.	O=S(=O)(c1c(Cl)cc(Br)cc1Cl)N1CCN(C(=S)NC2CC2)CC1	1.6%	-1.8%	.
-4.6	CCOc1ccccc1NC(=O)c1ccc(S(=O)(=O)N(C)C)cc1	-7.8%	-3.3%	3.5%

Going on with the list:
GLA inh pH 4.5	Compound	Rango release inh	Rango complex inh	miR-21 reporter
3.6	N/C(Cc1ccc([N+](=O)[O-])cc1)=N\OC(=O)c1ccccc1F	17.5%	2.8%	-62.2%
-0.9	COc1cc(NC(=O)CN2CCN(Cc3ccc4c(c3)OCO4)CC2)cc(OC)c1	7.2%	-2.2%	-10.0%
-7.3	COc1ccc(CCNC(=O)c2ccc(Cl)cc2)cc1OC	13.2%	0.1%	-10.7%
.	Cc1ccc(CNC(=O)c2ccc(N3CCC4(CC3)CC(c3cccc(Br)c3)=NO4)c([N+](=O)[O-])c2)cc1	15.2%	-4.5%	.
-6.0	O=C(O)CC(NC(=O)C12CC3CC(CC(C3)C1)C2)c1ccc2c(c1)OCO2 (centres undefined)	1.0%	-0.4%	3.5%
.	CCC1Nc2ncnc(N3CCN(c4ccccc4)CC3)c2N(Cc2ccccc2)C1=O (centres undefined)	2.9%	0.6%	.
-1.9	CCCCCCCn1c(C)nnc1-c1cnn(C)c1N	6.9%	1.3%	-46.0%
2.6	Cc1ccc(/C=C2\SC(=S)N(C3CCS(=O)(=O)C3)C2=O)o1 (centres undefined)	-7.2%	?	5.6%

(listing goes on)
GLA inh pH 4.5	Compound	Rango release inh	Rango complex inh	miR-21 reporter
.	CC(C)(C)S(=O)N1Cc2cc(=O)n(Cc3ccccc3)cc2[C@H]1CCO (some centres undefined)	-3.5%	-0.3%	.
-1.6	COc1nc(N/N=C/c2ccc(-c3ccccc3[N+](=O)[O-])o2)nc(N2CCOCC2)n1	-11.3%	-0.2%	-41.2%
.	CCc1nnc(NS(=O)(=O)c2ccc(NCc3cc(Cl)ccc3O)cc2)s1	-5.7%	-1.4%	-4.7%
-13.5	OCC1(Cc2cccc(Cl)c2)CCCN(Cc2cnn(-c3ccccc3)c2)C1 (centres undefined)	12.1%	0.0%	-0.9%
.	O=C(OCc1ccc([N+](=O)[O-])cc1)c1cc(=O)c2ccccc2o1	-15.1%	3.1%	-13.0%
-5.7	CCCCc1ccc(NC(=O)CSC2=C(C#N)C(c3ccco3)C3=C(CCCC3=O)N2)cc1 (centres undefined)	2.4%	-3.8%	-3.5%
0.0	Cc1cc(C)cc(-n2c(C)cc(/C=N\NC(=O)COc3cccc4cccnc34)c2C)c1	-15.1%	4.8%	0.9%
.	O=C1Nc2ccc(Br)cc2C1=C1CCCCC1	-19.9%	?	18.8%

Further records follow:
GLA inh pH 4.5	Compound	Rango release inh	Rango complex inh	miR-21 reporter
.	C/C(=N\NC(=O)C1CC1)c1ccc(C)cc1C	6.4%	3.8%	.
-6.4	Cc1cc2cc(CN(Cc3cccs3)Cc3nnnn3CC3CCCO3)c(=O)[nH]c2cc1C (centres undefined)	-2.0%	-1.1%	-7.1%
-2.9	CCC(CC)C(=O)Nc1c2cnn(-c3ccccc3)c2nc(=O)n1-c1ccccc1	0.8%	8.7%	1.1%
-5.2	CCOC(=O)N1CCC(NS(=O)(=O)c2ccc3c(c2)C(C)(C)C(=O)N3C)CC1	18.6%	-0.1%	0.5%
.	O=S(=O)(c1ccccc1)N1CCN(CCO)CC1	0.5%	3.3%	0.5%
4.4	Cc1ccc(C(=O)NNC(=O)CSc2nnc(CNc3ccc(F)cc3)n2C)cc1	.	.	-1.9%
.	CCN1CCc2nc3sc(C(=O)Nc4cccnc4Cl)c(N)c3cc2C1	?	?	2.3%
5.3	Cc1nc(NCc2ccco2)c(C#N)c2c1COC(C)(C)C2	-2.4%	0.6%	-12.2%
-4.0	Cc1c(NC(=O)C(=O)/C=C(/O)c2ccccc2)c(=O)n(-c2ccccc2)n1C	2.5%	3.4%	-8.4%

Filtered by structure: those above containing a cyano group
GLA inh pH 4.5	Compound	Rango release inh	Rango complex inh	miR-21 reporter
-7.6	Cc1nn(-c2ccccc2)c2c1C1(C(=O)N3c4c(cccc41)C(C)CC3(C)C)C(C#N)=C(N)O2 (centres undefined)	-9.9%	2.4%	1.0%
-5.7	CCCCc1ccc(NC(=O)CSC2=C(C#N)C(c3ccco3)C3=C(CCCC3=O)N2)cc1 (centres undefined)	2.4%	-3.8%	-3.5%
5.3	Cc1nc(NCc2ccco2)c(C#N)c2c1COC(C)(C)C2	-2.4%	0.6%	-12.2%

A portion of the library; count on the stated rates, not on these rows.
